YB-1 expr inh: inhibitors of YB-1 gene expression, primary screen, cell-based, fluorescence; delta delta Cp (YB-1 minus CDIP) (no concentration beside the values); 30,000 compounds, 0.37% hits; AID 434959, 2010; U2OS, qRT-PCR YB-1 vs CDIP delta delta Cp, 16 h; active compounds read high; zero = DMSO, each unit about twofold;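 active = delta delta Cp rounded down to an integer at or above 3, about 3 SD of DMSO wells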;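 note: higher means less YB-1 transcript or more CDIP transcript relative to DMSO; stock transfer was 100 nL into about 100 µL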
MITF inh: inhibitors of MITF, primary screen, MITF inhibitor project, cell-based, luminescence. 37,000 compounds, 0.28% hits. AID 2240, 2010. TRPM1 promoter luciferase, 24 h. inhibition, % (test concentration not listed);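 active = most replicates at 85% or more, or half of them and the mean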;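 note: human melanocyte line stably carrying TRPM1 promoter luciferase reporter; 0% = vehicle wells and 100% = a positive control; the first replicate is given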
The depositor's hits bear a star; nt = no result given.

SMILES	YB-1 expr inh	MITF inh
COc1ccc(CCNCc2cccnc2)cc1OC	nt	1
CC(C)(CN)CNc1ccc([N+](=O)[O-])c2cccnc12	nt	20
C[C@@H]1CN([C@H](C)CO)C(=O)CCCn2nncc2CO[C@H]1CN(C)C(=O)Oc1cccc2ccccc12	-0.098	nt
C[C@H](CO)N1C[C@H](C)[C@@H](CN(C)C(=O)Oc2ccccc2)OCc2cnnn2CCCC1=O	0.093	nt
C[C@@H]1CN([C@H](C)CO)C(=O)CCCn2cc(nn2)CO[C@@H]1CN(C)C(=O)Oc1cccc2ccccc12	-0.091	nt
Cc1ccc(OC(=O)N(C)C[C@@H]2OCc3cnnn3CCCC(=O)N([C@@H](C)CO)C[C@H]2C)cc1	0.26	nt
C[C@@H]1CN([C@H](C)CO)C(=O)CCCn2nncc2CO[C@@H]1CN(C)C(=O)Oc1cccc2ccccc12	-0.031	nt
C[C@H]1CN([C@@H](C)CO)C(=O)CCCn2nncc2CO[C@@H]1CN(C)C(=O)Oc1ccc2ccccc2c1	0.18	nt
C[C@@H]1CN([C@@H](C)CO)C(=O)CCCn2nncc2CO[C@H]1CN(C)C(=O)Oc1cccc2ccccc12	-0.11	nt
COc1ccc(OC(=O)N(C)C[C@H]2OCc3cnnn3CCCC(=O)N([C@H](C)CO)C[C@@H]2C)cc1	0.0093	nt
C[C@H]1CN([C@@H](C)CO)C(=O)CCCn2nncc2CO[C@@H]1CN(C)C(=O)Oc1cccc2ccccc12	0.15	nt
Cc1ccc(OC(=O)N(C)C[C@H]2OCc3cnnn3CCCC(=O)N([C@H](C)CO)C[C@H]2C)cc1	-0.21	nt
C[C@@H]1CN([C@@H](C)CO)C(=O)CCCn2cc(nn2)CO[C@H]1CN(C)C(=O)Oc1cccc2ccccc12	-0.34	nt
Cc1ccc(OC(=O)N(C)C[C@H]2OCc3cnnn3CCCC(=O)N([C@@H](C)CO)C[C@H]2C)cc1	0.26	nt

Single values from the results shown:
YB-1 expr inh with Cc1ccc(OC(=O)N(C)C[C@@H]2OCc3cnnn3CCCC(=O)N([C@@H](C)CO)C[C@H]2C)cc1 reads 0.26
YB-1 expr inh with C[C@@H]1CN([C@@H](C)CO)C(=O)CCCn2cc(nn2)CO[C@H]1CN(C)C(=O)Oc1cccc2ccccc12 reads -0.34
YB-1 expr inh with COc1ccc(OC(=O)N(C)C[C@H]2OCc3cnnn3CCCC(=O)N([C@H](C)CO)C[C@@H]2C)cc1 reads 0.0093
YB-1 expr inh with Cc1ccc(OC(=O)N(C)C[C@H]2OCc3cnnn3CCCC(=O)N([C@@H](C)CO)C[C@H]2C)cc1 reads 0.26

Retrieved by compound from above, 2 records:
SMILES	YB-1 expr inh	MITF inh
C[C@H]1CN([C@@H](C)CO)C(=O)CCCn2nncc2CO[C@@H]1CN(C)C(=O)Oc1cccc2ccccc12	0.15	nt
Cc1ccc(OC(=O)N(C)C[C@@H]2OCc3cnnn3CCCC(=O)N([C@@H](C)CO)C[C@H]2C)cc1	0.26	nt

Full records, looked up by structure.
Record of `Cc1ccc(OC(=O)N(C)C[C@@H]2OCc3cnnn3CCCC(=O)N([C@@H](C)CO)C[C@H]2C)cc1` → YB-1 expr inh = 0.26; MITF inh = nt
Record of `C[C@H]1CN([C@@H](C)CO)C(=O)CCCn2nncc2CO[C@@H]1CN(C)C(=O)Oc1ccc2ccccc2c1` → YB-1 expr inh = 0.18; MITF inh = nt

Only part of the results is shown. The share of hits here may be higher or lower than overall.
